RN4220 kill: growth inhibition of S. aureus RN4220, primary screen, OD600; 16 h; inhibition, % (test concentration not listed); 330,000 compounds, 0.33% hits;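 active = z-score of -3 or lower and OD600 up to 0.18 on both plates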;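 note: plate controls were untreated cells for no effect and reference antibiotic for full effect; stock transfer was 100 nL into about 80 µL; one replicate is shown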
Mtb hypoxia rep: PubChem AID 1159583. M. tuberculosis hypoxia-regulated fluorescent reporter, fluorescence. fluorescence inhibition, % (concentration not given with the values). 300,000 compounds, 0.1% hits;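 active = 35 to 45% if threefold the growth effect, above 45% if 1.5-fold the growth effect; inactive = the rest, general growth blockers included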;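 note: wells of about 50 µL received 100 nL stock; 0% = vehicle wells and 100% = reference inhibitor wells; whole bacteria with a GFP reporter of the hypoxia response; strong numbers were not always called active; many hits fall short of the cut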
PrP 5UTR inh: inhibition of PrP 5' UTR reporter expression. cell-based PrP 5' UTR mRNA reporter, plate reader. inhibition, % (test concentration not listed). 340,000 compounds, 0.35% hits. AID 488862, 2010;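 active = every replicate at 50% or more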;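 note: 0 = median of the neutral control wells; tested in H4 reporter cells; numbers are from one replicate; inactives centre near -14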
Bead autofluor: counter-screen for toxin protease inhibitors: compound fluorescence. fluorescence intensity (no concentration beside the values). compound autofluorescence counterscreen, microsphere flow cytometry; stronger effect = higher value. 360,000 compounds, 3.1% hits. AID 624483;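 active = at least 3 SD above the mean of all compounds, about 16000 in these data; inconclusive = too few beads counted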;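 note: 100 nL of 1 mM stock went into each well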
BJeLR lethal: MLPCN primary cell-based screen for lethality selective to Ras in HRASV12 cells. BJeLR (HRASV12) viability, CellTiter-Glo ATP luminescence, 48 h; reference of the scale not given here. inhibition, % (test concentration not listed). 300,000 compounds, 0.17% hits. AID 1554, 2009;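 active = replicate mean above 50%; inconclusive = above 50% but judged a plate artefact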;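 note: 50 nL library stock added to about 25 µL; numbers are from one replicate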
ugtP null kill: growth inhibition of ugtP-null S. aureus, primary screen, RN4220 ugtP deletion, OD600; 16 h; some inactives read as strong as hits; growth inhibition, % (concentration not given with the values); 330,000 compounds, 0.54% hits; AID 1259309, 2017;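 active = z-score under -3 and OD600 up to 0.15 on both plates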;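 note: plate controls were untreated wells for no effect and antibiotic for full effect; wells of about 80 µL received 100 nL stock; the first replicate is given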
Mtb hypoxia rep growth: also measured in Mtb hypoxia rep; calls as there; growth inhibition, %; measured here: M. tuberculosis growth (absorbance);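 0% = vehicle and 100% = reference antibiotic; read after six days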
Active calls of the source: *; ? = inconclusive; · = not tested or not shown.

SMILES	RN4220 kill	Mtb hypoxia rep	Mtb hypoxia rep growth	PrP 5UTR inh	Bead autofluor	BJeLR lethal	ugtP null kill
CN(C)C(=O)CSc1nnc(-c2ccncc2)n1Cc1ccco1	2.1	8	4	-6	4279	6	7
Cn1c(SCC(=O)NN=Cc2ccncc2)nc2ccccc21	1.2	-11	6	·	·	·	11
CN(C)c1ccc(CN(C(=O)C2COc3ccccc3O2)C2CCS(=O)(=O)C2)cc1 (configuration not stated)	3.7	-1	-2	-4	19479*	1	3
CCCC(=O)NC(C)c1nc2ccccc2n1C (configuration not stated)	4.1	6	-3	-7	4902	0	-8
O=C(c1cc2sccc2n1Cc1ccc(F)cc1)N1CCc2ccccc21	-6.8	·	·	-33	2811	4	9
CC(C)(C)OC(=O)NN=Cc1cn(-c2ccccc2)nc1-c1cccnc1	-3.5	16	14	·	·	·	8
O=C(Nc1cc(C(F)(F)F)ccc1Cl)C1CCN(c2nnc(-n3cccc3)s2)CC1	-15	4	5	-17	3318	·	-14
CN1C(=O)C(=CN2CCN(C(=O)c3ccco3)CC2)C(=O)N(C)C1=S	·	·	·	-16	2064	-1	·
CC1CC(C)CN(CCCNC(=O)c2ccc3c(SCC(=O)O)c4c(nc3c2)CCC4)C1 (configuration not stated)	4.2	8	6	-23	3782	4	11
CCN(CCn1cccn1)C(=O)c1cc(COc2ccc(F)cc2Cl)on1	-3.2	11	0	-19	4585	25	3
Cc1ccc(S(=O)(=O)N(C)C)cc1NC(=S)N(CCC#N)Cc1cccnc1	2.8	5	-7	-15	5182	-12	5
CN(C)CCNC(=O)Nc1cccc(Cl)c1Cl	1.6	8	2	-20	2396	-1	1
COc1ccc(Cl)cc1C(=O)N(Cc1nc(-c2cccc(C)c2)no1)C(C)C	4.5	2	0	5	4422	1	13
CCOc1ccccc1C1C(C(=O)Nc2ccc(OC)cc2)=C(C)Nc2nc(CCCO)nn21 (configuration not stated)	2.7	·	·	17	5670	-8	1
COCCN(CCOC)Cc1cc(=O)oc2cc3c(cc12)CCC3	-1.1	4	1	-19	8294	-4	-1
COC(=O)c1cc(S(=O)(=O)NCc2ccccc2)cn1C	1.7	·	·	-3	5691	-2	4
COc1ccc(C)cc1-n1nc2ccccc2n1	0.6	-10	6	-17	2579	-3	1
CCCNC(=O)c1ccc2c(=O)c(O)c(-c3ccc(F)cc3)[nH]c2c1	11	9	-5	-4	3235	-13	8
CCCCCCn1ccc(=N)cc1	3.0	·	·	0	2502	12	2
Fc1ccc(NC(=S)N2CCc3ccccc32)cc1	0.2	14	-2	-17	4461	-2	-2
O=C(Nc1ccc(N2CCCC2)cc1)c1ccccc1[N+](=O)[O-]	7.3	6	6	-22	2369	-6	5
O=C(O)CC(C(=O)OCC1CCCO1)N1CCOCC1 (configuration not stated)	1.5	·	·	-13	3200	·	4
O=C(COc1ccccc1Cl)Nc1nnc(S(=O)(=O)N2CCCC2)s1	0.5	6	9	-13	4547	-7	14
COc1ccc(C(=O)Nc2nc(CC(=O)NCCc3cccc(OC)c3)cs2)cc1	17	11	4	-15	6198	9	21
Cc1ccc(S(=O)(=O)N2CCN(Cc3cc(C(C)(C)C)ccc3O)CC2)cc1	2.1	-4	4	-11	3344	-4	21
C/C(=N/NC(=O)CNC(=O)CCc1ccccc1)c1ccc(Cl)cc1	·	·	·	-9	4451	-7	·
N#CCCCCN1CCCC1	·	·	·	5	3253	-3	·
CCOC(=O)CP(=O)(c1ccccc1)c1ccccc1	17	11	3	-2	2248	-2	17
CCOC(=O)c1sc(C)c(C(=O)NCC(C)(C)CN(C)C)c1N	3.5	·	·	-16	2646	2	11
COc1cccc(NS(=O)(=O)c2cn(C)c(=O)n(C)c2=O)c1	9.2	3	-1	-8	4390	0	11
CCC(=Nc1ccc2c(c1)CCC2)c1c(O)n(-c2ccc(OC)cc2)c(=O)[nH]c1=O	2.3	-14	-11	-1	4109	-4	1
CCN1C(=O)c2ccccc2Sc2ccc(C(=O)NCCCN3CCCCC3)cc21	-0.4	-1	8	-23	4470	4	3
FC(F)(F)c1cc(Nc2ccccc2)nc(-c2ccccn2)n1	4.1	-2	0	0	4273	-10	4
O=P(O)(O)c1ccccc1OCCOCCOCCOCCOc1ccccc1P(=O)(O)O	5.6	10	8	-53	3316	6	6
COc1ccc(/C=N/NC(=O)c2c(-c3ccccc3)noc2C)cc1[N+](=O)[O-]	·	·	·	-17	5071	5	·
O=C(O)c1c2c(nc3ccc(S(=O)(=O)N4CCC(C(=O)NC5CCCCCC5)CC4)cc13)CCCC2	0.9	6	4	-15	4900	-2	5
Fc1cc(Br)ccc1NC(=S)NCCc1ccccc1	-2.1	16	5	-23	9044	4	-16
CC(=O)Nc1cc(NC(C)=O)cc(C(=O)OCC(=O)Nc2ccc(S(=O)(=O)NC3=NCCCCC3)cc2)c1	2.8	-1	2	-29	6143	5	5
O=C(/C=C/c1ccc(Cl)c(Cl)c1)N1CCOCC1	4.0	12	4	-26	4710	-6	-1
CCOc1ccc(S(=O)(=O)N2CCN(C(=O)c3ccco3)CC2)cc1	3.5	13	-1	-13	3716	-3	11
Cc1ccc(OCCCn2c(CO)nc3ccccc32)cc1	11	·	·	-19	3639	-3	-3
COc1cc(C(CCN2CCN(c3ccccc3)CC2)c2c(OC)cc(OC)c3c(C)cc(=O)oc23)cc(OC)c1OC (configuration not stated)	-2.2	7	10	-12	3120	-1	-7
Cc1nc(NC(C)c2ccccc2)c2c3c(sc2n1)CCC3 (configuration not stated)	1.5	1	-1	-8	16604*	-2	-7
N#CCON=C(c1ccccc1)c1ccncc1	1.5	-1	-4	·	·	·	0
CCN=C1S/C(=C\c2ccc(O)c(OCC)c2)C(=O)N1CC	0.2	2	4	2	2581	-6	-18
Cn1c(CNC(=O)c2ccccc2F)nnc1SCC(=O)Nc1nnc(C2CC2)s1	-0.2	2	-9	-5	2937	3	8
COc1ccc(CNn2c(-c3ccccc3F)nc3ccccc3c2=O)cc1OC	4.6	-1	-1	-9	4175	4	8
O=C1CC(N2CCN(c3ccccc3)CC2)C(=O)N1CCc1ccccc1 (configuration not stated)	-0.1	-8	-9	6	8451	4	5
O=C(NCCc1ccccc1)C1(c2ccccc2)CC1(Cl)Cl (configuration not stated)	-0.2	1	18	-13	6718	-6	-10
CC(C)C(=O)N(Cc1ccc2c(c1)OCO2)Cc1ccccn1	-5.7	3	-4	-16	9914	1	-1
Carrying on:
SMILES	RN4220 kill	Mtb hypoxia rep	Mtb hypoxia rep growth	PrP 5UTR inh	Bead autofluor	BJeLR lethal	ugtP null kill
CCCCC(CC)CNC(=O)c1cccs1 (configuration not stated)	1.4	·	·	-18	4475	-10	4
COc1ccc(C=NNc2ccccc2C(=O)O)cc1Cn1cc([N+](=O)[O-])cn1	3.2	-16	-16	·	·	·	-4
Cc1ccccc1NC(=O)c1cn2c(nc3ccccc32)c(C#N)c1C	1.6	8	-5	-19	4757	7	3
Cc1cccc(OCC(O)Cn2c(N3CCCCC3)nc3c2c(=O)n(C)c(=O)n3C)c1 (configuration not stated)	1.6	-7	9	20	3269	-1	-2
Cc1cc(C)c(S(=O)(=O)N2CCN(C(=O)c3ccc(-n4cncn4)c([N+](=O)[O-])c3)CC2)c(C)c1	0.3	5	-2	-16	5232	4	4
Cc1nn(-c2ccccc2)c(C)c1C=NNC(=O)c1cc(O)cc(O)c1	1.5	0	11	·	·	·	9
CNC(=S)SCCOc1ccccc1	2.1	10	2	-13	5056	3	18
CC1CCCCC12NC(=O)N(CC(=O)NCCc1ccc(S(N)(=O)=O)cc1)C2=O (configuration not stated)	4.8	-6	-5	-13	2892	·	12
Cc1ccc(NC(=O)COC(=O)CNC(=O)C2CCCCC2)cc1S(=O)(=O)N(C)C	1.3	3	3	-19	4812	·	2
COc1cccc(C(=O)Nc2cccc(-c3ccccc3)c2)c1	16	8	5	-17	3027	-4	5
Cn1c(NC(=O)c2cccs2)c(-c2cccs2)c(=O)c2ccccc21	0.9	6	18	-24	8715	·	-12
O=S(=O)(c1ccc(F)cc1)N1CCN(Cc2ccccn2)CC1	9.5	3	5	-11	3478	11	4
O=C(NCc1ccccc1)c1cccnc1	1.1	6	2	-18	3493	22	4
O=C(CCS(=O)(=O)c1ccccc1Cl)NC1CCCCCC1	5.3	10	6	-55	5378	·	3
Cn1nnnc1SCC(=O)NCc1ccccc1	0.3	·	·	-11	2089	-2	-3
CC1CCN(C(=O)/C(=C\c2ccccc2)NC(=O)c2ccccc2)CC1	4.1	-2	1	-9	4664	7	0
COc1ccc(C(=S)N2CCOCC2)cc1OC(=O)c1ccccc1	-0.2	5	4	-22	6063	-11	0
COC(=O)c1cc(=O)n(Cc2ccc3c(c2)OCO3)c(=Nc2ccc(F)c(Cl)c2)s1	-20	5	13	37	5102	0	0
O=C(COC(=O)c1cc(Cl)nc(Cl)c1)Nc1ccc(Cl)c(S(=O)(=O)N2CCOCC2)c1	2.5	2	9	-6	3276	·	7
O=C(NCCCN1CCOCC1)C(=O)N/N=C/c1ccccc1O	·	·	·	12	4848	4	·
CC(=O)Nc1ccccc1C(=O)OCc1cccc(F)c1	3.2	9	4	-38	3349	-17	9
Cc1ccc(NC(=O)CN2C(=O)C(=O)N(C3CCCC3)C2=O)cc1Cl	0.7	5	0	-8	5521	·	-6
O=C(NCc1ccco1)C1CCCN1S(=O)(=O)c1ccc2ccccc2c1 (configuration not stated)	3.0	-3	-19	-19	8087	-4	0
COc1ccccc1NS(=O)(=O)c1c(C(=O)N2CCCC2)c(C)n(C)c1C	3.8	1	-1	7	5519	-3	2
CCOC(=O)c1c(C)[nH]c(C(=O)Cn2nnc(-c3ccccc3)n2)c1C	-2.5	17	9	-27	3821	-13	6
CC(=O)c1ccc(OC(=O)COc2ccccc2Cl)cc1	3.5	21	8	3	32253*	-1	2
Cc1cc(/C=C2\C(=O)NC(=O)N(Cc3ccco3)C2=O)c(C)n1-c1ccc(C(=O)O)cc1	1.7	-10	8	-20	4275	12	7
Clc1ccc(Cn2ncc3c(N4CCCC4)ncnc32)cc1	-2.0	·	·	-26	4427	4	-8
O=C(NCCN1CCOCC1)c1cccc(S(=O)(=O)N2CCCCCC2)c1	5.9	6	3	-2	3290	-6	3
CC1CCN(CC(C)OC(=O)c2ccc3c(c2)OCCO3)CC1 (configuration not stated)	-3.2	·	·	33	6255	-2	-3
O=C(Cc1ccc(F)cc1)Nc1nnc(-c2ccc(F)cc2)o1	-3.0	6	7	-28	6113	-1	-14
OC(C[n+]1ccccc1)c1ccccc1 (configuration not stated)	2.2	2	0	-42	4162	-3	3
Cc1nc(CCNC(=O)C2CCC(=O)N(Cc3ccc(Cl)cc3)C2)sc1C (configuration not stated)	3.4	4	10	-10	5157	-9	2
O=C1CCCN1CCC1CCCCN1Cc1nc(-c2cnccn2)no1 (configuration not stated)	5.0	-9	-12	-2	?	12	-7
COC(=O)c1ccccc1NC(=O)C1CCN(C(=O)Cc2ccccc2)CC1	1.8	-2	0	-12	5841	0	0
CC(=O)Nc1ccc(S(=O)(=O)NC(C)C(=O)OCC(=O)NC2CCCC2)cc1 (configuration not stated)	2.0	5	7	-3	1945	5	-1
CCCN(C(=O)COC(=O)CSc1ccc([N+](=O)[O-])cc1)C1CCS(=O)(=O)C1 (configuration not stated)	5.1	2	-4	-2	3942	·	4
C/C(=N/NC(=O)CN1CCN(S(=O)(=O)c2ccc(Br)cc2)CC1)c1ccco1	·	·	·	-13	2107	-3	·
